BJeLR viability = kills HRASV12-expressing BJeLR cells. BJeLR (HRASV12) viability, CellTiter-Glo ATP luminescence, 48 h; reference of the scale not given here. 300,000 compounds, 0.17% hits. inhibition, % (test concentration not listed);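 active means replicate mean above 50%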;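 further: 50 nL library stock added to about 25 µL; numbers are from one replicate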
PrP 5UTR inh = suppresses PrP 5' UTR mRNA reporter expression | cell-based PrP 5' UTR mRNA reporter, plate reader | inhibition, % (test concentration not listed) | 340,000 compounds, 0.35% hits;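 active means every replicate at 50% or more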;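 further: 0 = median of the neutral control wells; tested in H4 reporter cells; numbers are from one replicate; inactives centre near -14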
Mtb hypoxia rep = Mtb hypoxia fluorescent reporter inhibition; M. tuberculosis hypoxia-regulated fluorescent reporter, fluorescence; fluorescence inhibition, % (no concentration beside the values); 300,000 compounds, 0.1% hits;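 active means 35 to 45% if threefold the growth effect, above 45% if 1.5-fold the growth effect; inactive means the rest, general growth blockers included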;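 further: wells of about 50 µL received 100 nL stock; 0% = vehicle wells and 100% = reference inhibitor wells; whole bacteria with a GFP reporter of the hypoxia response; strong numbers were not always called active; many hits fall short of the cut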
Autofluor counter = compound fluorescence in toxin protease inhibitor counterscreen; compound autofluorescence counterscreen, microsphere flow cytometry; active compounds read high; fluorescence intensity (concentration not given with the values); 360,000 compounds, 3.1% hits;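 active means at least 3 SD above the mean of all compounds, about 16000 in these data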;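 further: 100 nL of 1 mM stock went into each well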
RN4220 kill = kills Staphylococcus aureus RN4220; 330,000 compounds, 0.33% hits; S. aureus RN4220 growth, OD600, 16 h; AID 1259311; inhibition, % (concentration not given with the values);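 active means z-score of -3 or lower and OD600 up to 0.18 on both plates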;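 further: plate controls were untreated cells for no effect and reference antibiotic for full effect; stock transfer was 100 nL into about 80 µL; one replicate is shown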
Sa ugtP lethal = growth inhibition of S. aureus ugtP deletion strain; S. aureus RN4220 ugtP deletion, OD600 growth, 16 h; some inactives read as strong as hits; growth inhibition, % (test concentration not listed); 330,000 compounds, 0.54% hits;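 active means z-score under -3 and OD600 up to 0.15 on both plates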;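 further: plate controls were untreated wells for no effect and antibiotic for full effect; wells of about 80 µL received 100 nL stock; the first replicate is given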
Mtb hypoxia rep growth = also measured in Mtb hypoxia rep; calls as there; growth inhibition, %; measured here: M. tuberculosis growth (absorbance);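 0% = vehicle and 100% = reference antibiotic; read after six days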
Starred values were filed as active, the others as inactive; x = no result given.

Structure	Mtb hypoxia rep	BJeLR viability	RN4220 kill	PrP 5UTR inh	Sa ugtP lethal	Mtb hypoxia rep growth	Autofluor counter
O=C(OCc1ccccc1F)c1cnc(Cl)c(Cl)c1	-1.0	-10.8	4.5	-14.6	0.5	-1.3	5583
CC(=O)N1CCC(C(=O)N2CCN(S(=O)(=O)c3ccc(F)cc3)CC2)CC1	4.4	-8.9	5.0	-15.5	-6.5	0.5	5615
CCc1nnc(NN=Cc2ccccc2F)n1N	14.6	x	13.4	x	2.6	8.9	x
O=C(NN=C1CCCCCC1)c1cc2ccccc2cc1O	12.3	2.1	2.6	-1.8	-1.6	2.0	6589
CN(Cc1nc2ccccc2[nH]1)Cc1nc(CC2CC2)no1	-14.8	-2.6	4.2	-24.0	-8.7	-13.1	4552
COc1cc(C(=S)N2CCOCC2)ccc1OC(=O)c1cccc(C)c1	-3.8	11.3	7.4	-28.4	-1.2	-4.0	4217
CCOc1ccc(C(=O)NN=C(C)C2C(=O)c3ccccc3C2=O)cc1	2.2	x	4.1	x	8.3	-8.9	x
O=C(NC1CC1)C1=C[C@H](c2ccccc2)C[C@H](OCc2ccc(CO)cc2)O1	7.7	3.2	-12.3	-11.6	-5.4	4.7	4370
O=c1[nH]c2ccccc2c(O)c1-c1ccccc1	x	-5.9	3.2	-8.8	-8.0	x	5921
COc1cccc(OCCOc2ccc(/C=C3\C(=N)N4N=C(S(C)(=O)=O)SC4=NC3=O)cc2OC)c1	12.4	-4.3	8.0	-9.6	-3.3	14.7	3617
O=C1CCC(C(=O)N2CCCC(C(=O)c3ccc4ccccc4c3)C2)=NN1 (stereo not given)	7.8	-3.1	-0.1	6.3	-0.8	8.3	5699
Cc1ccc(-c2nnnn2C2C/C(=N\NC(N)=S)C3OCC2O3)cc1 (stereo not given)	x	0.3	x	-8.5	x	x	3903
COCCn1cnc2c1c(=O)n(Cc1ccccc1C#N)c(=O)n2Cc1ccccc1	8.0	2.2	3.7	-23.4	8.8	-0.3	3527
O=C(Nc1ccc(Nc2ccccc2)cc1)c1cc([N+](=O)[O-])ccc1Cl	-2.5	-12.4	-0.5	-16.0	12.9	3.0	3813
Cc1cccc(NC(=O)c2cccc(C(=O)Nc3cccc(C)n3)c2)n1	10.9	-5.9	3.0	-20.8	1.5	6.1	4483
CC1CN(C(=O)CCC(=O)NCCCN2C(C)CCCC2C)c2ccccc2O1 (stereo not given)	8.3	2.6	-9.6	-8.8	4.7	3.3	5142
O=C(NCCC1=CCCCC1)C1COc2ccccc2O1 (stereo not given)	x	x	6.2	-25.5	1.2	x	4750
CCc1ccc(NC(=O)Nn2cnnc2)cc1	7.8	4.6	7.6	-63.9	10.4	-12.1	5510
Cc1ccc(C)c2[nH]c(=O)c(CN(Cc3ccco3)C(=O)Nc3ccccc3)cc12	1.5	0.9	-1.4	-8.3	-3.1	6.7	2528
O=C(CC(=O)NN=Cc1cccs1)NCc1ccccc1	13.5	x	1.7	x	1.2	11.0	x
CSc1c(-c2ccccn2)c(N)nn1C(=O)C1CC1	3.5	-5.4	1.1	-18.9	30.7	-3.6	3827
C=CCN1C(=O)C(CC(=O)O)SC1=Nc1ccc(C(=O)O)cc1 (stereo not given)	-5.5	4.6	4.4	-13.9	2.4	-1.2	4314
O=C1Nc2ccccc2C(=O)N2[C@H](c3cccc(Br)c3)[C@@H]3C(=O)N(Cc4ccccc4)C(=O)[C@@H]3[C@H]12	x	1.9	x	0.5	x	x	3706
O=C(/C=C/Nc1ccc(Cc2ccc(N/C=C/C(=O)C(F)(F)F)cc2)cc1)C(F)(F)F	7.4	-1.7	8.9	-16.9	9.3	-4.2	2058
CCOC(=O)N1CCN(C(=O)CN(c2cc(C(F)(F)F)ccc2Cl)S(C)(=O)=O)CC1	3.0	-6.8	3.4	6.0	1.1	1.3	10562
Cc1cc(C)n(-c2nc3ccccc3c(=O)n2OCC(=O)OCc2ccccc2)n1	x	28.4	5.0	13.4	10.7	x	3579
Cc1ccc(NC(=O)CSCc2cc(=O)n3ccsc3n2)c(C)c1	2.1	1.5	3.2	3.0	7.8	-5.0	4163
Cc1ccc(COc2ccc(C=NO)cc2)cc1	7.2	x	4.1	x	14.0	1.0	x
O=C1OC(/C=C/c2ccccc2)=NC/1=C\c1cccnc1	x	1.7	x	-16.9	x	x	2976
CC1Cc2cc(S(=O)(=O)CCC(=O)NCc3ccco3)ccc2N1C(=O)C1CC1 (stereo not given)	-2.0	17.5	-1.0	-12.2	0.5	1.0	5073

Exported as labelled records: part of the list above
CCOc1ccc(C(=O)NN=C(C)C2C(=O)c3ccccc3C2=O)cc1
  Mtb hypoxia rep: 2.2	BJeLR viability: x	RN4220 kill: 4.1	PrP 5UTR inh: x	Sa ugtP lethal: 8.3	Mtb hypoxia rep growth: -8.9	Autofluor counter: x

O=C(NC1CC1)C1=C[C@H](c2ccccc2)C[C@H](OCc2ccc(CO)cc2)O1
  Mtb hypoxia rep: 7.7	BJeLR viability: 3.2	RN4220 kill: -12.3	PrP 5UTR inh: -11.6	Sa ugtP lethal: -5.4	Mtb hypoxia rep growth: 4.7	Autofluor counter: 4370

Returning to the listing, repeating the two entries before the break.
Structure	Mtb hypoxia rep	BJeLR viability	RN4220 kill	PrP 5UTR inh	Sa ugtP lethal	Mtb hypoxia rep growth	Autofluor counter
O=C1OC(/C=C/c2ccccc2)=NC/1=C\c1cccnc1	x	1.7	x	-16.9	x	x	2976
CC1Cc2cc(S(=O)(=O)CCC(=O)NCc3ccco3)ccc2N1C(=O)C1CC1 (stereo not given)	-2.0	17.5	-1.0	-12.2	0.5	1.0	5073
COc1cc2c(cc1NC(=O)C(C)OC(=O)c1ccc(S(=O)(=O)Nc3ccccc3Cl)cc1)oc1ccccc12 (stereo not given)	-0.5	3.8	8.8	-6.6	-13.2	-5.5	2574
Cc1cccc(Sc2nc(-c3ccccc3)ccc2C#N)c1	-4.5	0.2	-6.4	-11.6	-9.0	-3.4	5533
Cc1nn(C)cc1C(N)=O	x	-1.4	-0.4	-0.8	12.4	x	4628
C[C@]12c3[nH]c4cc(-c5ccco5)ccc4c3CCN1C(=O)[C@@H](CC(=O)NCc1cccc(C(F)(F)F)c1)C[C@@H]2C(=O)N1CCCCC1	-2.2	x	-13.9	-8.5	2.1	0.6	3919
COc1cccc(C(C(=O)NC2CCCC2)N(C(=O)c2ccco2)c2ccc(C(C)=O)cc2)c1OC (stereo not given)	-5.7	12.0	3.5	-14.3	7.7	4.6	5878
CC1CCc2sc(C(=O)N(C)CC(=O)Nc3ccc(N4CCOCC4)cc3)cc2C1 (stereo not given)	8.5	-23.2	4.4	-24.7	8.0	4.9	6564
Nc1nc2c(Cl)cc(Cl)cc2s1	12.1	2.1	10.6	-22.4	3.9	13.6	4403
COc1ccc(S(=O)(=O)N(C)CC(=O)NCCC2=CCCCC2)cc1	x	-5.3	1.3	-13.6	10.1	x	4960
CC(C)NS(=O)(=O)c1ccc(Oc2ncc(C(F)(F)F)cc2Cl)cc1	3.2	19.2	4.4	-17.7	-3.8	7.6	10281
CC(NS(=O)(=O)c1ccc(Cl)c(Cl)c1)C(=O)OCC(=O)N1CCCCCC1 (stereo not given)	-4.3	x	6.0	-14.4	0.4	-3.6	8211
CCN1C(=O)CSC1=NS(=O)(=O)c1ccccc1	-0.9	x	5.4	x	5.0	5.4	x
CCCNC(=O)COC(=O)c1ccc(OCC(=O)Nc2ccccc2OC)c(OC)c1	7.7	3.8	5.8	-27.3	-7.8	3.4	4248
CC(=O)Nc1ccc(NC(=O)C2CCN(C(=O)c3ccc([N+](=O)[O-])cc3)CC2)cc1	-1.7	-2.8	0.6	-12.2	1.1	10.1	2145
c1ccc(-c2csc3ncnc(NCCN4CCOCC4)c23)cc1	6.9	3.4	-0.3	-25.8	9.0	-0.8	4122
O=C(CCSCCc1ccccn1)Nc1ccc(Cl)cn1	8.6	0.0	5.9	-5.2	7.3	6.0	20129*
O=C(OCCN=C1NS(=O)(=O)c2ccccc21)C1CC(=O)N(c2ccc3ccccc3c2)C1 (stereo not given)	1.8	-1.5	3.6	-4.5	4.7	2.5	19051*
Cc1onc(-c2ccccc2)c1C(=O)Nc1nc2c(s1)CCCC2	2.0	-1.5	6.8	-38.7	-10.8	2.2	8517
CN1C(=O)NC(c2ccc(O)cc2)C2=C1CN(c1ccc(O)cc1)C2=O (stereo not given)	7.7	-6.9	4.7	-9.8	10.0	-3.3	3161
COc1ccc(CN2CSC(=S)N(Cc3ccc(OC)cc3)C2)cc1	6.1	-1.9	19.7	-51.3	45.4	13.5	5496
C=Cc1ccc(C2=CC(=O)CC(c3ccc(OC)cc3)C2)cc1 (stereo not given)	6.2	x	-2.8	x	-0.7	9.6	x
CN1C(=O)c2ccc(NC(=O)CSc3ccccc3)cc2C1=O	-1.2	-1.3	0.0	-32.9	3.1	-2.2	x
Cn1cc(Br)c(C(=O)NNC(=O)c2ccc(Cl)cc2)n1	11.9	-5.8	31.7	-18.4	7.0	3.2	2372
O=C(N/N=C/c1ccc(OC(=O)c2ccccc2Br)cc1)c1ccccn1	x	0.9	x	-48.0	x	x	4810
COc1ccc(-n2c(SCC(=O)c3c(N)n(C)c(=O)n(C)c3=O)nc3ccccc32)cc1	x	x	-0.8	-20.0	-8.6	x	2184
CN(C)S(=O)(=O)c1cccc(C(=O)N2CCN(C(=O)C3CCCO3)CC2)c1 (stereo not given)	6.2	x	7.0	-22.9	10.6	2.9	4868
O=c1c2ccccc2[nH]c(=S)n1CCCN1CCN(c2ccccc2)CC1	x	25.3	0.4	-13.4	4.4	x	3133
CCCc1ccc(-c2ccc(C(=O)O)cc2)nc1	9.5	-9.7	4.2	-36.4	11.4	-1.5	5733
CC(C)OC(=O)CSc1nnc2c3ccccc3n(C)c2n1	0.1	-0.2	5.1	-19.5	4.2	6.0	2622
COCCNC(=O)C(c1ccc(C)cc1)N(CCOC)C(=O)CCC(=O)Nc1ccccn1 (stereo not given)	9.8	2.4	2.9	-4.5	4.5	3.4	5710
Cc1csc(NC(=O)CSc2nnc3ncccn23)n1	-4.6	-3.3	1.8	-47.6	-1.1	4.3	22164*
Cn1cnnc1SCc1ccc(C(=O)N/N=C/c2cccs2)cc1	x	-2.3	x	-23.5	x	x	3470
O=C(NN=Cc1ccc(C(=O)O)cc1)C(=O)N1CCCCCC1	1.9	x	3.5	x	6.2	-7.0	x
COC(=O)c1ccc(C2C(Oc3ccccc3)C(=O)N2CCc2ccc(OC)c(OC)c2)cc1 (stereo not given)	2.8	-16.9	11.2	-4.6	9.9	3.2	7980
CC(C)C(C)(C#N)NC(=O)CSc1nnc(C(F)(F)F)n1C (stereo not given)	x	-6.1	5.3	-1.7	6.4	x	2466
O=[N+]([O-])c1cccc(-c2csc(Nc3ccccc3)n2)c1	16.5	x	-9.5	-77.0	8.5	4.6	3689
O=C(NNS(=O)(=O)c1ccc([N+](=O)[O-])cc1)c1ccc([N+](=O)[O-])cc1	10.0	-4.2	12.8	-7.6	9.8	0.4	3927
CC(C)(c1ccccc1)c1ccc(OCCN)cc1	3.9	-1.2	0.6	-29.2	5.0	1.5	3901
CC(OC(=O)c1ccco1)C(=O)Nc1ccc(C(F)(F)F)cc1 (stereo not given)	-5.6	x	4.0	-2.9	-0.2	-5.0	6240
COCCn1c(SCC(=O)NNC(=O)c2ccccc2)nc2ccccc21	-6.9	x	1.5	-1.7	3.9	13.5	3821
O=C(NCc1ccc(F)cc1Cl)C1CCN(S(=O)(=O)N2CCC3(CC2)OCCO3)CC1	8.3	1.3	5.6	-15.1	3.4	12.6	10575
Cc1nc2cc(-c3ccc(Cl)cc3)nn2c(NCCN(C)C)c1C	10.1	-11.3	4.4	-70.9	22.5	8.8	2507
COc1ccc(OC)c(S(=O)(=O)N2CCCC(C(=O)N3CCCC3)C2)c1 (stereo not given)	-3.8	0.8	3.6	-4.9	6.6	-6.3	4812
Cc1cc(NS(=O)(=O)c2cn(C)nc2C)no1	8.9	-18.4	3.2	-18.5	11.0	-3.4	5985
Cc1cc(C)cc(N(CC(=O)NCCSCc2ccco2)S(C)(=O)=O)c1	0.3	2.9	2.5	-8.6	-4.2	13.7	3399
CC(=O)N1CCN(c2ccc(Oc3nnnn3-c3ccccc3)cc2)CC1	7.4	3.4	4.8	-26.1	-8.6	9.9	5130

Screening data from PubChem BioAssay.
